FEN1 inhibitor = qHTS Assay for the Inhibitors of Human Flap endonuclease 1 (FEN1); P39748; Recombinant FEN1 flap cleavage, fluorescence, 15 min; Potency, µM (highest dose often 114 µM), inactives show top-dose activity change, negative = inhibition, actives largely listed as inhibitors; 0.35% of 390,000 active; AID 588795, 2011; note: nearly all actives have a fitted effect of over 65% in size
Target sequence (P39748 whole entry, looked up): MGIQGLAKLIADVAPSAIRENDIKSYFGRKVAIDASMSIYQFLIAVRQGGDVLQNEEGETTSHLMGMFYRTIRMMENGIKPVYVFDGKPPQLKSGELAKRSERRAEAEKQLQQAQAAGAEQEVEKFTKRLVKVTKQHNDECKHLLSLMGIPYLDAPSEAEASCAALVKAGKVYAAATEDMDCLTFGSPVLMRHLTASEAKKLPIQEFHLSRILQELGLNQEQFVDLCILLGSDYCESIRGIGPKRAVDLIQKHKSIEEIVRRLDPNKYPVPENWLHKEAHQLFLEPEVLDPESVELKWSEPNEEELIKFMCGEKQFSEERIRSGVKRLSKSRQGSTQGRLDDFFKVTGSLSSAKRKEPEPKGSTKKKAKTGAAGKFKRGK
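Nuclease activity of 10 nM FEN1 was measured after 15 min of room-temperature exposure to titrated compounds, by adding 50 nM flap substrate and reading plates at 0 and 15 min.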
KAT2A inh = qHTS Assay for Inhibitors of GCN5L2; Histone acetyltransferase KAT2A (Homo sapiens), Q92830; GCN5L2 HAT assay, ThioGlo1 CoA-SH fluorescence; Potency, µM (titrated, usually from 58.9 µM), for inactives: at the top dose activity change, negative = inhibition, actives largely listed as inhibitors; 0.21% of 390,000 active; AID 504327, 2011
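GCN5L2 (20nM final) in 50mM HEPES, 0.1mM EDTA pH 7.5, 0.01% Tween-20 was preincubated 15 min at room temperature with compound, then given ThioGlo1 (50uM), H3(1-25) peptide (75uM) and acetyl-CoA (70uM); CoA-thiol fluorescence (Ex340/Em540) was read at 0 and 20 min.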
Starred values were filed as active, the others as inactive; ? = inconclusive; . = not tested or not shown; & = joins results of further samples; [ ] = remark or other dose. Calls come from the whole dose curve; as a rule, active = well fitted curve in the direction sought with a large enough effect; inconclusive = small, poorly fitted or top-dose-only effect, or another doubt; inactive = no such curve, though single readings can be large; an effect the other way counts as inactive or inconclusive. % is set by controls: 0 for no effect and ±100 for the full control effect; potency is the fitted concentration of half-maximal effect. These rows are one share of the data, and most or all hits are left out here.

SMILES	FEN1 inhibitor	KAT2A inh
O=C(Nc1ccc(N2CCN(C(=O)c3ccco3)CC2)cc1)c1cccs1	-4%	-4%
O=C1CN(C(=O)COC(=O)CNS(=O)(=O)/C=C/c2ccccc2)c2ccccc2N1	2%	-6%
CC(C)(C)C(=O)n1nc(-c2ccccc2)oc1=O	-2%	1%
OCCN=c1cc(-c2ccccc2)oc2ccc(Cl)cc12	?	2%
O=C(Nc1ccc(S(=O)(=O)NCc2ccccc2)cc1)c1ccc(Br)o1	1%	-3%
O=C(NC(=S)Nc1ccccn1)c1ccc(-c2ccccc2)cc1	-18%	-3%
CC(NC(=O)Cc1ccccc1)c1ccccc1 (configuration not stated)	-2%	2%
CN(C)c1ccccc1C(=O)N1CCCC(Nc2ccc(F)cc2)C1 (configuration not stated)	9%	-3%
O=C(NNc1ccc([N+](=O)[O-])cc1)c1ccco1	7%	-6%
O=C(CNC(=O)c1cc2c(n(-c3ccccc3)c1=O)CCCC2=O)c1ccccc1	-1%	-16%
CCCCN(CCCC)CCNC(=O)c1cn(CC)c2ccc(S(=O)(=O)N3CCCC3)cc2c1=O	5%	-17%
CSc1ccc(C2c3[nH]c4ccccc4c3CCN2C(=O)c2ccnn2C)cc1 (configuration not stated)	-1%	-5%
CC(=O)C1CCC2C3CCC4=CC(=O)C=CC4(C)C3CCC12C (configuration not stated)	-1%	.
CN1CCN(NC(=S)Nc2ccc(Oc3ccccc3)cc2)CC1	-4%	1%
Cc1noc(C)c1C(=O)Nc1ccccn1	-6%	-21%
C=CCc1c(C)nc(C)nc1N/N=C/c1ccc(N(C)C)cc1	3%	-9%
Cc1[nH]c(=O)c(C#N)c(C)c1CCC(=O)NCc1cccc(C(F)(F)F)c1	2%	-7%
Cc1nnc2sc(-c3cccc4ccccc34)nn12	-4%	-4%
CCOc1ccc(OCCC(=O)N2CCN(S(=O)(=O)c3ccc(F)cc3)CC2)cc1	-5%	-7%
COc1ccc(NS(=O)(=O)c2cccc(C(=O)Nc3ccccc3C(=O)O)c2)cc1	-3%	2%

15 of these compounds in a different format.
Value order – FEN1 inhibitor, KAT2A inh
CC(C)(C)C(=O)n1nc(-c2ccccc2)oc1=O
  -2%, 1%
OCCN=c1cc(-c2ccccc2)oc2ccc(Cl)cc12
  ?, 2%
O=C(Nc1ccc(S(=O)(=O)NCc2ccccc2)cc1)c1ccc(Br)o1
  1%, -3%
O=C(NC(=S)Nc1ccccn1)c1ccc(-c2ccccc2)cc1
  -18%, -3%
CC(NC(=O)Cc1ccccc1)c1ccccc1 (configuration not stated)
  -2%, 2%
CN(C)c1ccccc1C(=O)N1CCCC(Nc2ccc(F)cc2)C1 (configuration not stated)
  9%, -3%
O=C(NNc1ccc([N+](=O)[O-])cc1)c1ccco1
  7%, -6%
O=C(CNC(=O)c1cc2c(n(-c3ccccc3)c1=O)CCCC2=O)c1ccccc1
  -1%, -16%
CCCCN(CCCC)CCNC(=O)c1cn(CC)c2ccc(S(=O)(=O)N3CCCC3)cc2c1=O
  5%, -17%
CSc1ccc(C2c3[nH]c4ccccc4c3CCN2C(=O)c2ccnn2C)cc1 (configuration not stated)
  -1%, -5%
CC(=O)C1CCC2C3CCC4=CC(=O)C=CC4(C)C3CCC12C (configuration not stated)
  -1%, .
CN1CCN(NC(=S)Nc2ccc(Oc3ccccc3)cc2)CC1
  -4%, 1%
Cc1noc(C)c1C(=O)Nc1ccccn1
  -6%, -21%
C=CCc1c(C)nc(C)nc1N/N=C/c1ccc(N(C)C)cc1
  3%, -9%
Cc1[nH]c(=O)c(C#N)c(C)c1CCC(=O)NCc1cccc(C(F)(F)F)c1
  2%, -7%

Other structures.
SMILES	FEN1 inhibitor	KAT2A inh
COc1cc(C(=O)ON=C2C=C(C)C(=O)C(C)=C2)cc(OC)c1OC	3%	-12%
CCOC(=O)N1CCN(Cc2nc3cc(NC(=O)C(C)C)ccc3n2CC)CC1	2%	-20%
CC(C)c1ccc(N(C(=O)c2snc(C(N)=O)c2N)C(C(=O)NCC2CCCO2)c2ccc(N(C)C)cc2)cc1 (configuration not stated)	-11%	2%
CCCCn1c2nc3ccccc3nc2c2c(=N)oc(C)nc21	5%	-18%
Cc1cnc(CNC(=O)c2ccc3oc(Cc4ccccc4)nc3c2)[nH]1	18%	14%
Cc1ccc(-n2nc(C)cc2NC(=O)CC#N)cc1	0%	-13%
CCOC(=O)c1c(CNCCN(CC)CC)n(C)c2cc(Br)c(OC)cc12	?	-8%
CC(=O)c1cccc(N(C(=O)CNC(=O)c2ccco2)C(C(=O)NCc2ccco2)c2ccccc2)c1 (configuration not stated)	9%	-5%
CC(=O)c1sc(NC(=O)c2ccccc2F)nc1-c1ccccc1	-8%	-2%
O=C(CSc1nc(-c2ccccc2)cs1)N1CCc2ccccc21	11%	-5%
O=C(NCCc1ccc(C(F)(F)F)cc1)C1CCC(=O)N(CCCc2ccccc2)C1 (configuration not stated)	11%	-1%
CCCNC(=O)COC(=O)c1n[nH]c2ccccc12	-7%	-4%
COc1cc(CN2CCC(C(N)=O)CC2)ccc1OCc1ccccc1	10%	-4%
Cc1ccc([N+](=O)[O-])cc1/C=N/Nc1nnnn1-c1ccccc1	3%	-1%
Cc1c(Cl)cccc1NC(=O)c1ccc(OCC(=O)NCc2ccccc2)cc1	2%	39%[activator]
COc1ccccc1-c1nc(N2CCN(C)CC2)c2ccccc2n1	.	-9%
COc1cc(Br)cc(/C=N/c2ncn[nH]2)c1O	-3%	-10%
CCCN(CC(=O)Nc1ccc(F)c(F)c1F)C(=O)c1ccc(=O)n(Cc2ccccc2)n1	-5%	-26%
CC(C)(C)c1ccc(-n2nc(C(N)=O)c(O)cc2=O)cc1	5%	-4%
O=C(NCC(=O)N(c1cccnc1)C(C(=O)NC1CCCC1)c1cccs1)c1cccs1 (configuration not stated)	23%	11%
O=C(CSc1ccc(-c2cccnc2)nn1)Nc1ccc(F)cc1F	0%	-31%
CC(Sc1cnc2ccccc2n1)C(=O)O (configuration not stated)	0%	0%
Cc1ccc(C)c(Oc2nnnn2-c2ccccc2)c1	-14%	3%
COc1ccc(CCNC(=O)CSc2nncn2N)cc1OC	6%	0%
COc1cc2c(cc1OC)C(c1ccc(Br)cc1)N(C(=O)c1ccccc1C(=O)O)CC2 (configuration not stated)	33%	-3%
COc1cc(OC)cc(C(=O)NNC(=O)CN2C(=O)NC(C)(c3ccc(C)cc3)C2=O)c1 (configuration not stated)	14%	2%
COc1ccc(-n2c(SCC(=O)Nc3ccc4c(c3)OCO4)nnc2C(C)N2CCCCC2)cc1 (configuration not stated)	-19%	-2%
CCc1ccccc1NC(=O)NCc1cccnc1	13%	-2%
Cc1cc(NC(=O)COC(=O)COc2cccc3c2OC(C)(C)C3)no1	5%	-4%
CCOC(=O)N1CCN(C(=O)C2CCN(S(=O)(=O)N(CC)CC)CC2)CC1	3%	0%
O=C1CC(c2ccco2)CC2=C1C=Nc1ccccc1N2 (configuration not stated)	-1%	-6%
COC(=O)c1cc(NC(=O)c2ccccc2)c(=O)oc1/C=C/Nc1ccc(Oc2ccccc2)cc1	-6%	-2%
COc1ccc(CNC(=O)C2CC(O)CN2C(=O)Nc2ccccc2)cc1 (configuration not stated)	-3%	2%
CCCCNC(=O)CCn1c(=O)c2ccccc2n(Cc2ccccc2C)c1=O	4%	0%
COc1ccc(Cc2nnc(N/N=C/c3ccc(O)cc3)[nH]c2=O)cc1OC	10%	-3%
COc1ccc(C)cc1NS(=O)(=O)c1ccc(NC(=O)CN(c2cc([N+](=O)[O-])ccc2C)S(C)(=O)=O)cc1	-11%	-10%
Cc1ccsc1/C=N/NC(=O)c1ccc2c(c1)OCCO2	3%	-21%
Cc1cc(C)cc(N(C(=O)c2ccco2)C(C(=O)NC2CCCC2)c2ccncc2)c1 (configuration not stated)	1%	-16%
COc1ccc(N2CC(NC(=O)c3cccc4ccccc34)CC2=O)cc1OC (configuration not stated)	3%	-5%
Cc1cc2c(c(=O)n1Cc1ccccn1)C(C(C)C)C(C#N)=C(N)O2 (configuration not stated)	-16%	2%
Cc1cccc(-n2nc3c(c2NC(=O)CCCl)CSC3)c1	-12%	-19%
Cc1c(NC(=O)CN2CC(C)OC(C)C2)c(=O)n(-c2ccccc2)n1C (configuration not stated)	-2%&-1%	-5%
Cc1c(Br)ccc(NC(=O)CCN2C(=O)C3C4CCC(C4)C3C2=O)c1C (configuration not stated)	4%	-7%
O=C(CSCC(=O)N1CCOCC1)Nc1ccccc1	4%	-4%
CCOC(=O)/C=C1\SCC(=O)N1CCOc1cccc(Br)c1	-6%	-3%
CSc1nccc(-c2nn(-c3ccc(C)cc3)ccc2=O)n1	-13%	-14%
NC(=O)C1=C[C@@H](c2ccc(C(F)(F)F)cc2)C[C@@H](OCCCCO)O1	-10%	-8%
Cc1ccc2c(c1)N(C(=O)NC1CCCCC1)C(C)(C)CC2C (configuration not stated)	-4%	-2%
O=C(NCc1ccco1)c1nnc(Cc2ccc(Cl)cc2)o1	22%	-4%
CC(=O)C1=C(C)N(CC2CC2)C(=O)N[C@H]1c1cccs1	-1%	-1%
Cc1ccc(CC2CC(=O)N(c3ncccn3)C2=O)cc1 (configuration not stated)	10%	-5%
CC(Sc1nccn1C)C(=O)Nc1ccc(C(N)=O)cc1 (configuration not stated)	3%	2%
Cc1ccc(OC(=O)c2ccc(Br)o2)cc1	1%	-6%
Cc1ccc(-n2c(N)cc(=O)nc2SCC(=O)N2CCN(c3ccccc3)CC2)cc1C	5%	3%
Cc1ccc2c(NC(=S)NC(=O)c3ccccc3)cccc2n1	-14%	1%
CCc1ccc(NC(=O)[C@@H](NC(=O)[C@@H]2Cc3ccccc3CN2)C(C)CC)cc1 (some centres not stated)	-21%	-7%
Cc1ccccc1CN(C)C(C)C(=O)NCc1ccccc1 (configuration not stated)	-7%	34%[activator]
CCNC(=S)Nc1cc2oc3ccccc3c2cc1OC	0%	?
Cc1cccc(NC(=O)NC2CCCc3ccccc32)c1 (configuration not stated)	-11%	6%
CC(C)(C)C(=O)O/N=C(\N)c1ccc(Br)cc1	-8%	-7%

Next section
SMILES	FEN1 inhibitor	KAT2A inh
CC(C(=O)c1ccc(Br)cc1)[n+]1cccc(NC(=O)c2ccccc2)c1 (configuration not stated)	-2%	-6%
Cc1ccc(CNC(=O)COC(=O)c2cc3c(s2)CCC(C)C3)cc1 (configuration not stated)	2%	-3%
COC(=O)c1sc(NC(=O)CSc2nc3cccnc3n2C)nc1C	-8%	0%
O=C(NC1CCCc2ccccc21)C1CCN(S(=O)(=O)c2cccc3nsnc23)CC1 (configuration not stated)	-3%	-24%
Cc1cccc(NC(=S)N(C)C)c1C	1%	3%
O=[N+]([O-])c1ccc(NC2CCN(Cc3ccccc3)CC2)c([N+](=O)[O-])c1	-19%	-2%
COC(=O)CSc1nnc(CNC(=O)c2ccc(S(=O)(=O)N3CCOCC3)cc2)n1C	20%	0%
O=C(Nc1ccccc1)C1CCCN1S(=O)(=O)c1cccs1 (configuration not stated)	4%	0%
NC(=S)N/N=C/c1coc2cc(Cl)ccc2c1=O	2%	27%
CCC(C)[C@H](N)C(=O)NC[C@H]1CC[C@H](C(=O)N[C@@H](Cc2ccccc2)C(=O)O)CC1 (some centres not stated)	14%	-3%
COc1cccc(N2CC(C(=O)OC(C)C(=O)c3ccccc3)CC2=O)c1 (configuration not stated)	0%	0%
CCOC(=O)Cn1c(=O)oc2cc(S(=O)(=O)NCc3cccs3)ccc21	-4%	-3%
CCOC(=O)n1c(=O)n(C)c2ccc(Cl)cc21	-1%	-3%
CCCCN(C(=O)CSc1nnc(-c2ccco2)o1)c1c(N)n(Cc2ccccc2)c(=O)[nH]c1=O	4%	-1%
COc1ccc(C2CC(c3ccc4ccccc4c3)=NN2C(=O)CN2C(=O)CCC2=O)cc1 (configuration not stated)	-16%	-4%
COc1ccc(/C=C/C(=O)Nc2c(C(=O)O)[nH]c3ccccc23)cc1OC	-5%	3%
COc1ccc(C(=O)CSc2nc3c(c(=O)n(C)c(=O)n3C)n2C)cc1	.	1%
Nc1ccc2c(c1)OC1(CCCCC1)O2	1%	-7%
FC(F)(F)c1nnc2ccc(NCc3ccccc3)nn12	2%	-4%
Cc1cccc(NS(=O)(=O)c2c(C)nc3scc(C)n3c2=O)c1	15%	-7%
CNC(=O)CSc1nnc(C2CC2)n1-c1ccccc1	-4%	-4%
O=C(Nc1ccccc1F)Nc1ccccc1N1CCCCC1	1%	-5%
COc1ccc(/C(N)=N/OC(=O)Cc2ccccc2)cc1	-20%	0%
COc1cccc(C(=O)Nc2nc3ccccc3s2)c1	13%	-5%
O=C(CN1C(=O)NC2(CCCCCC2)C1=O)N1CCN(S(=O)(=O)c2ccc(Cl)cc2)CC1	12%	-1%
CN(c1ccccc1)C(c1ccc(F)cc1)c1nnnn1CC1CCCO1 (configuration not stated)	-12%	0%
Cc1ccccc1NC(=O)N1C2CCC1CC(O)(c1cccnc1)C2 (configuration not stated)	-9%	-1%
